Screens (PubChem)
eIF4H FP inh: inhibitors of RNA binding by human eIF4H; 290,000 tested, 0.94% active; Q15056; inhibition, % at 35 µM; eIF4H fluorescence polarization binding assay;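 active = 50% or more with normal probe brightness, or confirmed in later tests; inconclusive = above 50% with abnormal brightness, or retests that disagree; inactive = below 50% or failed in later tests; about a fifth of its hits are not listed in these tables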;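 also: calls also rest on retests at 20 µM and on dose response follow-up; 0% = protein and probe with vehicle and 100% = probe without protein; strong numbers were not always called active; many hits fall short of the cut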
PABP polyA inh: PABP-poly(A) binding inhibition; inhibition, % at 35 µM; PABP-poly(A) RNA binding, fluorescence polarization; 290,000 tested, 1% active; P11940;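 active = 50% or more with normal probe brightness, or confirmed in later tests; inconclusive = above 50% with abnormal brightness, or retests that disagree; inactive = below 50% or failed in later tests; about a fifth of its hits are not listed in these tables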;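 also: calls also rest on retests at 20 µM and on dose response follow-up; controls were probe without protein and protein plus probe with vehicle; some compounds called inactive have numbers as strong as hits; many hits fall short of the cut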
Target sequence (P11940 whole entry, looked up): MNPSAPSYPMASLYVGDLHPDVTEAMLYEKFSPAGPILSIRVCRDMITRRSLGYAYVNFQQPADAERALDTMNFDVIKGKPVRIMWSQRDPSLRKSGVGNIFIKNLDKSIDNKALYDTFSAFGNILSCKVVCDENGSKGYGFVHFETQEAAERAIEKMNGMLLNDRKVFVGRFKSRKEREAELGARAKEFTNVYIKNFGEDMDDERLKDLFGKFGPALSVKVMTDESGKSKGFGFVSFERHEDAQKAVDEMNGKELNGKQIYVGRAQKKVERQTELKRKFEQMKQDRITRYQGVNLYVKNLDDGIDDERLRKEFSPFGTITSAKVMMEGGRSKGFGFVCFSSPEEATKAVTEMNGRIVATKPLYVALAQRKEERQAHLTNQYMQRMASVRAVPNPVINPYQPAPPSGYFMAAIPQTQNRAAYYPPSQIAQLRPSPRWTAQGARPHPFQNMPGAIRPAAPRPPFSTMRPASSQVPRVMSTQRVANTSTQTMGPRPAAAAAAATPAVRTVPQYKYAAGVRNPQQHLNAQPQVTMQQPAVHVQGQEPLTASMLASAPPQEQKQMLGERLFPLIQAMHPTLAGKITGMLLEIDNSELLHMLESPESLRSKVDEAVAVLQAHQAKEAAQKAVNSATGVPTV
MT1-MMP act inh: inhibitors of human MT1-MMP activation | P50281 | HT1080 RFP-PRO-GFP cells, GFP/RFP ratio fluorescence, overnight; percent of plate control window, DMSO zero | GFP/RFP ratio change, % at 20 µM | 360,000 tested, 0.061% active;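 active = GFP/RFP ratio change of at least 30% with cell ATP level not reduced by more than half and red fluorescence within 50% of control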; also: strong numbers were not always called active
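Assay system: HT1080 RFP-PRO-GFP cells. Benchmarks: DMSO vehicle wells and RFP-L50D-GFP reporter cell wells. Times: overnight cell settling, then overnight compound exposure, 37 °C, 5% CO2. Compound: 20 µM single dose, 1% DMSO. Read-out basis: GFP/RFP fluorescence ratio.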
Rce1 inh: blocks yeast Ras-converting enzyme | calls only | AID 2563 | 290,000 tested, 0.27% active | yeast membranes, quenched prenylated peptide cleavage fluorescence;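 active = fall in fluorescence gain of 50% or more versus controls, with final raw signal at or below 3038400; inconclusive = same 50% fall but final raw signal above 3038400; inactive = fall in fluorescence gain under 50%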;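 also: plate controls were neutral control wells for no effect and wells lacking membranes for full effect; tested at 10 µM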
Env fusion inh: HIV envelope-mediated fusion inhibition; HeLa-JRFL Env/CEM21 cell fusion, luciferase; inhibition, % at 12.3 µM; 360,000 tested, 1.1% active; AID 651610;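 active = mean replicate inhibition score of at least 50 and every replicate individually at or above 50; inconclusive = only one of the two criteria met; inactive = mean below 50 and not all replicates reaching 50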;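 also: 0% = plate neutral controls and 100% = maraviroc near 300 nM; one replicate is shown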
CSC inhib: blocks cancer stem cells; cancer stem cell-like cells viability, luminescence; 300,000 tested, 1.1% active; inhibition, % at 7.5 µM;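 active = mean at 75% or more and at least half the replicates too; inconclusive = mean and replicates disagree; tested in HMLE shEcad cells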;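 also: 0% = median of negative and 100% = median of positive control wells; the first replicate is given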
Yeast UUG start: modulators of start codon recognition fidelity in yeast; S. cerevisiae UUG-firefly luciferase reporter, luminescence/redox ratio; activity score, % at 18.7 µM; 350,000 tested, 0.13% active; AID 602363;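 active = replicate mean at a twofold rise or more, about +100% in these data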;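 also: firefly luciferase made from a UUG start codon reports start codon fidelity; reporter light over untreated wells divided by growth signal over untreated wells; some hits fall short of that in this replicate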
eIF4H FP inh retest: also measured in eIF4H FP inh; calls as there; inhibition, %; compound at 20 µM; confirmation average;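 mean of two retest wells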
PABP polyA inh retest: recorded beside PABP polyA inh, whose call it bears; inhibition, %; compound at 20 µM; confirmation repeats;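 mean of two retest wells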
MT1-MMP act inh RFP: further read-out of MT1-MMP act inh, marked with its call; RFP signal change, %; measured here: RFP expression control read;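 0 = vehicle wells; hits needed this value within 50% of zero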
* hit, by the source's call; i = inactive; ? = inconclusive; · = no result given.

SMILES	eIF4H FP inh	PABP polyA inh	MT1-MMP act inh	MT1-MMP act inh RFP	Rce1 inh	Env fusion inh	CSC inhib	Yeast UUG start	others
CCOc1cc(C(=S)N2CCCC2)ccc1O	6.8	3.2	0.2	-2.3	i	-23.0	6.3	-19.4
COC(=O)C(=C/C(C)=C/c1cccs1)C(=O)OC	7.7	10.9	-5.4	-6.0	i	-51.1	46.8	·
CCOCCn1ccc2c(OCC(=O)NCc3ccccc3)cccc2c1=O	·	·	-3.8	-2.5	i	-5.2	-4.0	·
CCOC(=O)N1CCC(N2Cc3cccc(C(=O)NC(C)c4ccc5c(c4)OCCO5)c3C2=O)CC1 (stereo not given)	-3.3	6.9	0.2	1.9	i	20.7	-16.4	-3.3
O=Cc1cn(CCC(=O)O)nc1-c1cccc(Br)c1	1.1	-6.4	-0.7	0.3	i	0.7	-10.0	0.6
O=C(CCN1CCCCCC1)Nc1cccc(Cl)c1	-6.2	-0.2	3.0	2.8	i	-1.9	-12.3	3.2
COc1cccc(C(=O)c2ccccc2NC(C)=O)c1	·	·	-1.3	-3.1	·	-17.7	·	-14.9
CCN(CC)C(=O)C1CCCN(Cc2nc(-c3cccs3)no2)C1 (stereo not given)	-0.1	-1.0	2.4	-1.7	i	-3.7	-12.2	·
COc1ccc(NC(=O)CCC(=O)N2CCC(c3ccccc3)=N2)cc1S(=O)(=O)N1CCCCC1	·	·	14.2	6.2	·	9.5	·	6.7
N#CC1=C(N)Oc2cc(O)c(Cl)cc2C1c1cccnc1 (stereo not given)	13.1	10.6	-122.8	4.8	i	-4.9	·	-12.9
O=C(/C=C/c1ccco1)NC(=S)Nc1ccccc1	26.7	7.9	-2.6	-0.1	i	-29.7	10.2	-21.3
COC(=O)/C(=C\c1ccc([N+](=O)[O-])cc1)NC(=O)c1ccccc1	·	·	0.6	6.0	·	-14.3	·	-18.7
Cc1ccc(Nc2nnc(SCC3CCCCO3)s2)cc1 (stereo not given)	5.0	16.7	1.5	0.4	i	-63.9	18.5	-18.3
C=CCc1c(C)[nH]c2c(OC)cccc2c1=S	7.2	11.4	0.0	-2.4	i	8.6	12.0	5.1
C[C@@]12C(=O)N(c3ccc(Cl)cc3)C(=O)N1[C@@H]1c3ccccc3OC[C@@H]1[C@H]2c1ccccc1	·	·	-9.3	-7.9	·	29.0	0.0	-14.3
CCCCN(C)c1c(C)nc2ccc(C(=O)NCc3cccs3)cn12	·	·	-7.8	-4.2	·	5.7	·	-4.4
CCOC(=O)C(C)On1c(-c2cccc(Cl)c2)nc2ccc([N+](=O)[O-])cc21 (stereo not given)	2.5	26.5	-4.3	-10.4	·	·	14.4	-9.7
Cc1cc(NC(=O)CSc2nnc(Nc3ccccc3)s2)no1	-6.2	1.7	2.3	2.3	i	·	·	·
Cc1ccc(S(N)(=O)=O)cc1NC(=O)C1CC2CCC1C2 (stereo not given)	6.4	-1.1	-2.0	-2.0	i	·	-9.1	-12.2
O=C(CNC(=O)C1CCCCC1)OCC(=O)c1ccc(F)cc1	·	·	-3.5	0.7	·	-5.1	1.5	-13.5
O=C(c1ccccc1NS(=O)(=O)c1cccc2cccnc12)N1CCOCC1	3.6	-1.0	-3.8	4.2	i	-2.3	-5.2	·
CC1Cc2ccccc2N1S(=O)(=O)c1cccs1 (stereo not given)	5.3	2.8	-10.5	2.3	i	-15.4	4.5	-10.5
COc1ccc(C(=O)c2c3ccc(OC)cc3[n+]([O-])n2Cc2ccc(C(N)=O)cc2)cc1	·	·	1.4	3.7	·	13.1	-4.6	-7.5
Cc1ccc(C)c(OC(=O)c2cncc(Br)c2)c1	0.9	-11.9	1.8	6.0	i	·	-18.2	-9.5
CC(CN1CCCCC1)OC(=O)c1ccc(Cl)cc1Cl (stereo not given)	-7.2	3.4	0.4	6.4	i	·	-1.4	-19.2
O=C1NC(=S)N/C1=C/c1cccc2ccccc12	-4.2	-15.7	-5.7	-4.1	i	-8.6	-1.1	-8.9
O=C(c1ccco1)N1CCN(C(=O)c2ccccc2OC(=O)C23CC4CC(CC(C4)C2)C3)CC1	-3.9	4.4	-7.2	-1.8	i	·	·	-3.7
COc1cc(C(=O)N/N=c2/sc3ccccc3n2C)cc(OC)c1OC	-2.1	2.4	1.5	8.0	i	-0.5	4.1	1.8
COc1ccc(CN2CCN(c3cccc(C)c3C)CC2)cc1OC	-0.3	3.7	-1.3	-3.4	i	27.3	-4.9	-9.3
COCc1cc(C)nc(SCC(=O)Nc2cccc(C)c2C)c1C#N	-16.0	7.9	2.8	-1.6	i	·	-10.6	-10.0
CC(C)c1ccc(S(=O)(=O)N2CCN(CC(=O)Nc3ccc4c(c3)OCO4)CC2)cc1	-3.9	-4.5	5.2	-8.2	·	·	30.0	-7.2
CCCCc1ccc(/C(C)=N/Nc2cc(N3CCOCC3)nc(C)n2)cc1	-5.7	-5.0	-5.4	-7.8	i	37.2	79.9*	-33.3
O=Cc1ccc(O)c2ncccc12	11.9	2.2	1.1	-0.4	i	·	·	-8.6
Cc1nc2sc3c(c2c(=O)[nH]1)CCCC3	-4.3	-6.4	·	·	i	-1.0	-4.0	-17.7
CC(C)NC(=O)C1CCN(C2CCN(C(=O)/C=C/c3cccs3)CC2)CC1	2.1	4.9	1.8	1.7	i	2.6	·	·
O=C(Nc1ccccc1)n1cc(-c2ccccn2)c(N2CCOCC2)n1	8.4	4.9	-1.7	4.0	i	2.7	8.5	·
CC1CCCC(N2CCN(C(=O)c3cccc(F)c3)CC2)C1 (stereo not given)	3.0	22.0	0.7	2.5	·	·	12.1	·
CCOC(=O)c1c(/N=C/C2C(=O)CC(C)(C)CC2=O)sc(C)c1C	24.2	-2.2	-4.5	-0.3	i	-2.9	-12.5	-8.3
O=C(N/N=C\c1cc(Br)c(Br)o1)c1cncc(Br)c1	-7.0	-2.4	4.7	2.4	i	-16.6	-5.4	·
O=C(c1c(F)c(F)c(F)c(F)c1F)N1CCc2ccccc21	·	·	-68.4	5.7	i	-21.5	-6.6	3.6
O=[N+]([O-])c1ccc(COc2cccc(CN3CCCC3)c2)cc1	·	·	-0.4	2.4	·	-5.3	·	5.7
Clc1cccc(Cn2ncc3ccccc32)c1	-2.2	-10.3	-1.1	-1.7	i	2.7	-1.0	-15.0
CC1CCCCN1C(=O)C1CC(c2ccc(F)cc2)=NO1 (stereo not given)	1.1	-4.3	3.7	3.8	i	·	-6.0	-6.1
CCOC(=O)C1=CC[C@H]2c3c(c4ccccc4n3C)C[C@H]1N2C	·	·	4.9	1.6	·	2.0	11.5	-4.5
CCS(=O)(=O)N1CCC(c2nc(-c3ccc(C(F)(F)F)cc3)no2)CC1	-4.3	-5.0	2.9	-15.5	i	55.6*	-18.5	-13.4
CC(C)N(Cc1cn[nH]c1-c1ccc(-c2ccccc2)cc1)Cc1nccn1C	6.2	-3.8	-4.6	-5.0	i	-4.6	·	0.6
COc1ccc(C(CC(=O)O)c2ccc3c(c2)OCO3)cc1 (stereo not given)	5.2	3.8	-0.3	2.1	i	7.1	-8.5	-18.4
C=CCn1c(CSc2nc3ccccc3s2)nnc1SCC(=O)NCc1cccnc1	-0.7	18.5	4.5	5.8	i	10.8	-8.4	-26.5
CCc1c(C)c(C#N)c2nc3ccccc3n2c1NCCOC	1.9	2.7	-1.4	0.9	i	25.4	-0.5	-5.0
O=C(CCCCCN1C(=O)[C@@H]2Cc3ccccc3CN2C1=O)Nc1ccccc1Cl	-6.1	-4.6	1.9	-1.7	i	2.9	1.5	-3.6
The list continues.
SMILES	eIF4H FP inh	PABP polyA inh	MT1-MMP act inh	MT1-MMP act inh RFP	Rce1 inh	Env fusion inh	CSC inhib	Yeast UUG start	others
Cn1cnnc1SCc1ccc(-c2ccc(Br)cc2)o1	12.0	8.9	-2.5	2.5	i	·	·	-11.7
Cn1nc(-c2ccccc2)c(COC(=O)c2cccc(Cl)c2)c1S(=O)(=O)c1ccccc1	-1.3	11.4	-3.2	-16.6	i	·	-13.7	-15.5
O=[N+]([O-])c1cc(Cc2ccccc2)cc(C=Nc2ccc(N3CCOCC3)cc2)c1O	23.3	10.8	21.4	19.4	i	·	52.3	·
CC/C=C/C(=O)N1CC2(CC(c3cccc(NC(=O)CC(c4ccccc4)c4ccccc4)c3)=NO2)C[C@@H]1C(N)=O (stereo not given in full)	2.0	6.1	4.2	1.5	i	-7.5	-21.3	-3.8
COc1ccc(OC[C@@H](O)CNC(=O)c2cccc3c2C(=O)c2ccc(Cl)cc2S3(=O)=O)cc1	·	·	2.8	2.1	·	17.3	15.5	-10.6
Cc1cccc(C)c1NC(=O)c1ccc(-n2cnnn2)cc1	-4.4	1.6	-2.8	0.9	i	-284.2	-3.1	-16.4
O=C(/C=C/Nc1ccc(Br)cc1F)c1ccco1	-1.3	0.6	-6.9	-4.0	i	-108.9	-9.5	-79.2
CCOC(=O)CNC(=S)n1cnc(N)n1	-0.8	1.6	-5.1	2.4	i	22.0	-1.5	-24.6
Cc1ccc(N=Cc2c(O)[nH]c3ccccc23)c([N+](=O)[O-])c1	57.8	2.2	21.5	-2.9	i	-56.2	9.7	·	eIF4H FP inh retest=5.2;PABP polyA inh retest=-2.8
OCC[C@H]1C[C@H](O)[C@@H](O)[C@@]2(OCCCc3ccccc32)O1	·	·	2.2	4.6	·	-8.8	12.6	-11.5

2 entries drawn at random from the list so far:
SMILES	eIF4H FP inh	PABP polyA inh	MT1-MMP act inh	MT1-MMP act inh RFP	Rce1 inh	Env fusion inh	CSC inhib	Yeast UUG start	others
O=C(CNC(=O)C1CCCCC1)OCC(=O)c1ccc(F)cc1	·	·	-3.5	0.7	·	-5.1	1.5	-13.5
Cc1cc(NC(=O)CSc2nnc(Nc3ccccc3)s2)no1	-6.2	1.7	2.3	2.3	i	·	·	·

Carrying on.
SMILES	eIF4H FP inh	PABP polyA inh	MT1-MMP act inh	MT1-MMP act inh RFP	Rce1 inh	Env fusion inh	CSC inhib	Yeast UUG start	others
CCN1C(=O)/C(=C2\SC(N3CCCCC3)=NC2=O)c2ccccc21	4.0	9.7	15.8	1.2	·	·	0.0	-6.6
Cc1cc(C)c(C#N)c(SCc2ccc([N+](=O)[O-])cc2)n1	-8.2	10.7	-1.6	-1.8	i	-6.6	-4.0	·
Cc1ccc2c(c1)nnn2C1CCN(CC(=O)Nc2ccc3c(c2)OCCO3)CC1	3.7	-14.2	-2.8	2.0	i	-26.8	-14.5	-10.5
COc1cc(SC)ccc1C(=O)NCC1CCCO1 (stereo not given)	-5.2	12.8	-2.0	-3.0	i	-155.5	-5.4	-11.5
Cc1ccccc1-c1nnn(Cc2ccc(F)cc2Cl)n1	0.4	-4.0	-1.3	-0.9	i	-47.6	1.4	-23.4
CCCc1nnc(NC(=S)Nc2ccccc2)s1	0.7	-3.7	-4.5	0.3	i	-41.4	-13.0	·
CN1C[C@@H]2C(c3ccccc3)C3(c4cccnc4)CC2(C3)[C@H]1c1ccccc1 (stereo not given in full)	0.5	-6.2	-0.6	-0.5	i	-29.2	13.2	-22.7
Cc1cc(C)nc(N2C(=O)CC(C(C)c3ccccc3)C2=O)n1 (stereo not given)	-7.2	7.4	-0.4	6.1	i	-43.2	-14.6	-0.8
Cc1ccc(F)cc1N=Cc1c(O)c2ccccc2oc1=O	-7.9	-11.8	-4.7	1.6	i	·	3.6	6.9
COc1ccc(N(C(=O)CNS(=O)(=O)c2ccccc2)C(C(=O)NCc2ccco2)C(C)C)cc1 (stereo not given)	-1.6	4.4	2.2	1.6	i	23.4	-5.6	·
Cc1ccccc1NC(=O)Cn1c(=O)sc2ccccc21	-14.5	-0.1	4.4	-0.4	i	?	0.0	·

Some of the compounds tested; count on the stated rates, not on these rows.
